Assay outcomes from PubChem BioAssay.
Vaccinia Venus – qHTS for Stage-Specific Inhibitors of Vaccinia Orthopoxvirus: Venus Reporter Primary qHTS; Vaccinia virus Venus reporter expression, fluorescence; AID 720580, 2013; 330,000 compounds, 0.46% hits; Potency, µM (doses to about 36.5 µM), for inactives: at the highest dose activity change, negative = inhibition, actives largely listed as inhibitors; active means well fitted inhibition curve with a large enough effect; inconclusive means small, poorly fitted or top-dose-only effect; inactive means no such curve, though single readings can be large or run the other way; tested in A549 cells; further: nearly all actives have a fitted effect of over 30% in size; inactives centre near -10
VACV mCherry inh – qHTS for Stage-Specific Inhibitors of Vaccinia Orthopoxvirus: mCherry Reporter Primary qHTS; Vaccinia virus mCherry reporter infection, fluorescence; about a quarter of the inactives have no number; Potency, µM (highest dose often 36.5 µM), for the others: at the top dose activity change, negative = inhibition, actives largely listed as inhibitors; 310,000 compounds, 0.63% hits; active = well fitted inhibition curve with a large enough effect; inconclusive = small, poorly fitted or top-dose-only effect; inactive = no such curve, though single readings can be large or run the other way; tested in A549 cells; further: nearly all actives have a fitted effect of over 35% in size; inactives centre near -10
* = called active by the depositor; i = inactive; ? = inconclusive; / = not tested or not shown; & = joins results of further samples; [ ] = remark or other dose. On the % scale 0 is the no-effect control and ±100 the full control effect; potency means the concentration at half of the fitted maximal effect.

SMILES | Vaccinia Venus | VACV mCherry inh
Cc1ccc(N2C(=O)C(CC(=O)Nc3ccccc3)N(CCC3=CCCCC3)C2=O)cc1 (configuration not stated) | -11% | -19%
O=C(Nc1ccccc1N1CCN(c2ccccc2)CC1)c1ccccc1F | -3% | 0%
CCN(CC)c1ccc2c(C)cc(=O)oc2c1 | -18% | -3%
COCCNC(=O)C1(C)CCCN(C(=O)CCc2ccccc2)C1 (configuration not stated) | 8% | i
CC(=O)Nc1ccc2sn(-c3ccccc3)c(=O)c2c1 | -13% | i
CCC(Sc1nc2ccccc2c(=O)n1CCc1ccc(OC)c(OC)c1)C(=O)N(CC)CC (configuration not stated) | -25% | -24%
COc1ccccc1-n1c(-c2ccccc2)c[n+]2c1CCc1ccccc1-2 | ? | -17%
CC1Cc2ccccc2N1C(=O)CN1CCc2ccccc2C1 (configuration not stated) | -23% | /
NS(=O)(=O)c1ccc(CCNC(=O)CSc2nc3ccsc3c(=O)n2Cc2ccccn2)cc1 | -12% | i
CC1(c2ccccc2)CC(C)(C)N2C(=O)/C(=C3\SC(=S)NC3=O)c3cccc1c32 (configuration not stated) | 0% | -8%
Cc1ccc(S(=O)(=O)N2CCN(C(=O)CCC(=O)OCC(=O)Nc3cccc(C#N)c3)CC2)cc1 | -13% | -4%
COCCN1C[C@@H](CO)O[C@@H](n2cnc3c(N(C)C)ncnc32)C1 | -8% | i
Cc1ccc(NC(=O)c2ccc3[nH]c(C)cc(=O)c3c2)c(C)c1 | -8% | -5%
CCN(c1ccccc1)S(=O)(=O)c1nnc(NC(=O)c2ccco2)s1 | -14%&-3% | -6%
O=C(NCCS(=O)(=O)NCc1ccccc1)c1ccc2c(c1)OCO2 | 0% | i
C/C(=N/NC(=O)Cc1cccn1C)c1ccccc1 | -7% | -9%
CN1CCN(S(=O)(=O)c2ccc(NC(=O)Cc3ccc([N+](=O)[O-])cc3)cc2)CC1 | -19% | -10%
CCCCN(CC)CCCNC(=O)c1cc2c(=O)n(C)c3ccccc3c2n1C | -4% | -9%
CCOC(=O)C1CCCN(C(=O)c2ccccc2NC(=O)c2nsc3ccccc23)C1 (configuration not stated) | -8% | i
COC(=O)CNC(=O)CSc1nc2c(sc(=S)n2-c2ccccc2)c(=O)[nH]1 | -3% | -5%
O=C(CCn1cnnn1)N1CCCC(Nc2ccc(F)cc2)C1 (configuration not stated) | -11% | -3%
O=C(Nc1ccc(S(=O)(=O)Nc2ncccn2)cc1)C1COc2ccccc2O1 (configuration not stated) | -1% | -9%
CCc1nc2c(OCCOc3ccccc3)cccn2c1N(C)C(=O)c1ccc(C)cc1 | -9% | i
CSc1nnc(-c2sc3cc(C(F)(F)F)cnc3c2-c2ccccc2)n1C | ? | /
COc1ccc(NS(=O)(=O)c2ccc(O)c(C(=O)OCC(=O)NC3CCCCC3)c2)cc1 | -1% | 0%

SMILES | Vaccinia Venus | VACV mCherry inh
Cc1ccc(NC(=S)N(Cc2ccc(Br)cc2)Cc2ccc(C(=O)O)cc2)cc1C | -4% | 1%
CC(=O)NS(=O)(=O)c1cccnc1Nc1cccc(Cl)c1 | -20% | /
COC(=O)c1sc(S(=O)(=O)Nc2ccc(Br)cc2)c(C(=O)OC)c1C | -18% | -13%
COCC(C)(C)COS(N)(=O)=O | -13% | i
CCCCOCCCNC(=O)C[C@@H]1C[C@@]2(C(=O)OC)CCCCC=C2N(Cc2cccc3ccccc23)C1=O | -9% | 3%
Cc1cc(C)n2nc(SCC(=O)N3CCC4(CC3)OCCO4)nc2n1 | 4% | 0%
Cc1ccccc1-n1c2nc(=O)n(C)c(=O)c-2cc2ccccc21 | 6% | -19%
COC(=O)c1ccc(Cl)cc1NC(=O)N1CC=C(c2c[nH]c3ccccc23)CC1 | -7% | -19%
Cc1ccc(NC(=O)CN2C(=O)S/C(=C\c3cc(C)n(C)c3C)C2=O)cc1 | 3% | i
O=C(CNC(=S)NC(=O)C1CCCCC1)c1ccccc1 | -11% | -15%
Cc1ccc(CN(C)S(=O)(=O)c2c(C)noc2/C=C/N(C)C)cc1 | -21% | -9%
CCOC(=O)C1=C(C)N=c2s/c(=C\c3ccc(OCC(=O)O)cc3)c(=O)n2C1c1ccccc1 (configuration not stated) | 5% | -14%
O=C(COC(=O)/C=C/c1cccc([N+](=O)[O-])c1)NCCCN1CCCC1=O | -1% | i
c1cncc(-c2nc(N3CCCCCC3)c3ccccc3n2)c1 | -21% | -16%
O=C(NCc1cccnc1)/C(=C/c1ccccc1)NC(=O)c1ccccc1 | -7% | i
O=C(NC1CCCC1)c1cccc(Oc2ccccc2)c1 | -14% | -13%
CC1(C)OC(=O)C2=C(C[C@@H](CCOCc3ccccc3)O[C@H]2c2ccc(F)cc2)O1 | -4% | i
O=C(SCC(O)C(O)CS)c1cccs1 (configuration not stated) | -12% | -8%
Cc1cc(C)c2nc(N(Cc3cccnc3)C(=O)CCS(=O)(=O)c3ccccc3)sc2c1 | ? | -20%
CNC(=O)c1cnc(-c2ccccc2)nc1-c1ccccc1 | -12% | -15%
Nc1nnc(SCC(=O)Nc2ccc(F)c(Cl)c2)n1-c1ccccc1 | -7% | i
Clc1ccc(C(c2ccccc2)N2CCN(c3ccccn3)CC2)cc1 (configuration not stated) | -5% | -21%
CCOC(=O)N1CCN(C(=O)Cn2nc(C)c3sc4ccccc4c3c2=O)CC1 | -14% | /
Cc1cccc2c1cnn2C(=O)CCC(=O)NCc1ccc(F)cc1 | 3% | -6%
COc1ccccc1NC(=O)C1CCN(C(=O)c2ccco2)CC1 | -3% | 38%[activator]

SMILES | Vaccinia Venus | VACV mCherry inh
COC(=O)c1scc(-c2ccc(C)cc2)c1S(=O)(=O)N1CCN(c2ccc(C(C)=O)cc2)CC1 | 0% | -12%
CC(C)CN(CC(C)C)CC(O)Cn1cc(/C=C/C(=O)c2ccccc2)c2ccccc21 (configuration not stated) | -14% | -23%
COc1cc2cc(OC(C)=O)c3cc4c(cc3c2c(OC)c1OC)OCO4 | -4% | -4%
Cc1ccc(C)c(Cn2nc(-c3cc(C)ccc3C)ccc2=O)c1 | -6%&-12% | -13%&-19%
Cc1nonc1OCCNCc1c(C(=O)N(C)C)nc2ccc(Cl)cn12 | -2% | i
Nc1nc2n(n1)C(c1ccco1)CC(c1ccc(Cl)cc1)N2 (configuration not stated) | -29% | ?
O=C(NCC(=O)N1CCN(S(=O)(=O)c2c(F)cccc2F)CC1)c1ccccc1F | -15% | i
CC1CN(C(=O)c2ccccc2C(=O)c2ncc[nH]2)CC(C)O1 (configuration not stated) | 3% | -15%
CCCOC(=O)c1ccc(NC(=O)c2cccc(S(=O)(=O)N3CCN(C(C)=O)CC3)c2)cc1 | -16% | -11%
COc1cccc(NC(=O)CCSc2ccc(C)cc2)c1 | -5% | -14%
O=C(NC1CCCCC1)N1CCN(C2CCCCC2)CC1 | -12% | -11%
CN(c1ccccc1C(=O)Nc1ccc2c(c1)OCO2)S(C)(=O)=O | -11% | i
CC1CCC(NC(=O)c2ccc3c(c2)OCO3)CC1 (configuration not stated) | 0% | -6%
CCc1cccc(CC)c1NC(=O)CCCSc1nc2ccccc2s1 | -12% | -19%
CCc1ccc2nc(NC(=O)c3ccc(N4C(=O)CCC4=O)cc3)sc2c1 | -2% | 2%
COc1ccc(-c2csc(C(O)c3ccc(F)c(OC)c3)n2)cn1 (configuration not stated) | 0% | 15%
CCOC(=O)C1CCN(Cc2coc3c(Cl)cc(Cl)cc3c2=O)CC1 | -5% | -7%
O=C(c1cc([N+](=O)[O-])ccc1N1CCOCC1)N1CCCCC1 | -8% | -17%
Cc1c(C(=O)NN)nn(-c2ccc(F)cc2)c(=O)c1C#N | 0% | -11%
CN(CC1CCOCC1)C(=O)CC1C(=O)NCCN1Cc1ccc(F)c(F)c1 (configuration not stated) | -7% | -15%
Cc1ccc(Nc2nc(Cl)nc3ncn(C)c23)c(C)c1 | -22% | -28%
COc1ccc(C(C)=O)cc1CSc1nnc(C)s1 | -6% | i
O=C(c1cccc(S(=O)(=O)Nc2ccccc2Cl)c1)N1CCN(C(=O)c2ccco2)CC1 | -20% | -14%
CC(O)CNc1nc2c(c(=O)n(Cc3ccc(Cl)cc3)c(=O)n2C)n1C (configuration not stated) | 16%&-4% | 0%
Cc1cc(=O)oc2cc(Nc3ccccc3)ccc12 | -4% | -8%

| structure | Vaccinia Venus | VACV mCherry inh |
| --- | --- | --- |
| COc1cc(S(=O)(=O)N2CCC(O)(c3cccc(C(F)(F)F)c3)CC2)ccc1-n1cnnn1 | -27% | -9% |
| Cc1cc(C)c2c(c1)C1C=CCC1C(c1ccc(S(=O)(=O)N3CCOCC3)cc1)N2 (configuration not stated) | 1% | -13% |
| COc1ccc(N=C2S/C(=C\c3ccc(OC(C)C(=O)O)c(OC)c3)C(=O)N2CCc2c[nH]c3ccccc23)cc1 (configuration not stated) | -11% | 5% |
| COc1cccc(-c2nn(-c3ccccc3)cc2C(=O)n2nnc3ccccc32)c1 | 0% | -5% |
| CCC1Nc2ncnc(N3CCCCC3)c2N(Cc2ccc(Cl)cc2)C1=O (configuration not stated) | ? | -7% |
| N#C/C(=C\C=C\c1ccccc1)C(=O)NCc1cccnc1 | ? | ? |
| COCCNC(=O)c1ccc(C)c(NC(=O)C2=C(C)OCCS2)c1 | -9% | i |
| COc1ccc(-n2c3c(cc(C(=O)NCc4ccco4)c2=O)C(=O)CC(C)(C)C3)cc1 | 6% | -1% |
| O=C1CSC(=Nc2ccc(Cl)cc2)N1Cc1ccco1 | -14% | i |
| Cn1c(=O)c2c(O)c(C=NCc3ccccc3)c(=O)n(C)c2n(C)c1=O | -11% | i |
| Cc1cc(=O)n2nc(N3CCCC(C(=O)NCc4cccc(Br)c4)C3)sc2n1 (configuration not stated) | -18% | i |
| O=C(Nc1ccc(S(=O)(=O)N(Cc2ccccc2)c2ccccc2)cc1)c1ccc([N+](=O)[O-])cc1 | -29% | ? |
| Cc1ccccc1C(=O)NNC(=O)CCc1ccccc1 | -2% | -7% |
| COc1ccc2nc(NC(=O)c3ccc(S(=O)(=O)N4CCC(C)CC4)cc3)sc2c1 | -7% | -6% |
| CCCNC(=O)CCn1c(=S)oc2ccccc21 | 0% | -6% |

| structure | Vaccinia Venus | VACV mCherry inh |
| --- | --- | --- |
| CCNC(=S)NNC(=O)c1cc(-c2cccc(OC)c2)nc2ccccc12 | -3% | -13% |
| O=C(CCC(=O)N1CCN(C2CCCC2)CC1)Nc1nnc(C(F)(F)F)s1 | -6% | / |
| COc1ccc(N(Cc2cccs2)C(=O)c2ccc(Br)o2)cc1 | 2% | 3% |
| Cc1ccc(C(=O)COC(=O)c2ccc(O)cc2)cc1 | -14% | -1% |
| CCN(CC)S(=O)(=O)c1ccc(C(=O)N2CCN(c3ncccn3)CC2)cc1 | 6% | -1% |
| CCOc1ccc(-c2nn3c(-c4ccc(F)cc4)nnc3s2)cc1 | -4% | ? |
| NC(CCc1ccccc1)c1csc(Nc2ccc(C(=O)NCCCO)cn2)n1 (configuration not stated) | -7% | -2% |
| CN(Cc1ccccc1)c1nnc(NC(=O)Nc2cccc(Br)c2)s1 | ? | ? |
| COc1ccc(C(=O)OCc2c(C)noc2C)cc1 | 0% | -1% |
| Cc1ccc(NC2CCCN(C(=O)c3ccc(-n4ccnc4)cc3)C2)cc1C (configuration not stated) | 0% | -17% |
| O=C(OCc1cn([C@@H]2CN(C(=O)C3CCCCC3)[C@@H](c3ccc(Cl)cc3)C[C@H]2O)nn1)c1ccccc1 | -13% | i |
| Cc1nnc(SCC(=O)NNC(=O)c2ccco2)n1-c1cccc(Cl)c1 | -13% | i |
| O=C(NCc1ccccc1)c1ccc(CS(=O)(=O)c2c(Cl)cccc2Cl)o1 | 3% | -4% |
| CCCCn1c2c(c(=N)c3c1CCC3)CCC2 | ? | / |
| CCCS(=O)(=O)c1nc(S(=O)(=O)c2ccc(C)cc2)c(NCc2ccco2)s1 | -9% | i |

| structure | Vaccinia Venus | VACV mCherry inh |
| --- | --- | --- |
| Cc1ccc(/C=C2\SC(=S)N(CCCC(=O)N3CCOCC3)C2=O)cc1 | 3% | -6% |
| CC1(C)COC(c2cc3c(cc2Br)OCO3)OC1 | -9% | i |
| Cc1cn(CC(=O)NCc2ccccc2)c(=O)[nH]c1=O | -13% | -8% |
| COC(=O)c1ccc(N2C(c3cccc(OC)c3)=Cc3ccc(F)cc3C2c2c(C)[nH]c3ccccc23)cc1 (configuration not stated) | 5% | 0% |
| CC(=O)[C@@]1(O)CC[C@H]2[C@@H]3CCC4=CC(=O)CC[C@]4(C)[C@H]3[C@@H](O)C[C@@]21C | -8% | -10% |
| CN(C(=O)CSc1nnc(Cc2ccccc2F)n1N)C1CCCCC1 | -11% | -13% |
| COC(=O)COc1ccc(S(=O)(=O)N2CCCCCC2)cc1 | -8% | -8% |
| O=C(NCCCN1CCOCC1)/C(=C/c1cccnc1)NC(=O)c1ccccc1 | -27% | -7% |
| Cc1cc(C(=O)NCC2CCCO2)sc1C (configuration not stated) | 1% | i |
| Clc1ccc(-c2nnc(N3CCOCC3)o2)cc1 | 3% | 2% |

Laid out differently: results already given.
Order of values – Vaccinia Venus | VACV mCherry inh
- CN(C(=O)CSc1nnc(Cc2ccccc2F)n1N)C1CCCCC1
  -11% | -13%
- COC(=O)COc1ccc(S(=O)(=O)N2CCCCCC2)cc1
  -8% | -8%
- O=C(NCCCN1CCOCC1)/C(=C/c1cccnc1)NC(=O)c1ccccc1
  -27% | -7%
- Cc1cc(C(=O)NCC2CCCO2)sc1C (configuration not stated)
  1% | i
- Clc1ccc(-c2nnc(N3CCOCC3)o2)cc1
  3% | 2%
